YB-1 expr inh: inhibitors of YB-1 gene expression, primary screen, cell-based, fluorescence | U2OS, qRT-PCR YB-1 vs CDIP delta delta Cp, 16 h; active compounds read high; zero = DMSO, each unit about twofold | delta delta Cp (YB-1 minus CDIP) (concentration not given with the values) | 30,000 compounds, 0.37% hits;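 active = delta delta Cp rounded down to an integer at or above 3, about 3 SD of DMSO wells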;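 also: higher means less YB-1 transcript or more CDIP transcript relative to DMSO; stock transfer was 100 nL into about 100 µL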
PD-1 reversal: activators reversing PD-1 mediated T-cell inhibition, primary screen, luminescence, primary human CD4 T cells, PD-L1 beads | CellTiter-Glo 96 h | 29,000 tested, under 10 active | activation, % (concentration not given with the values);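 active = replicate mean of 50% or more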;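 also: 0% = median vehicle wells and 100% = positive control; 100 nL library stock added to about 50 µL; numbers are from one replicate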
MITF inh: inhibitors of MITF, primary screen, MITF inhibitor project, cell-based, luminescence; TRPM1 promoter luciferase, 24 h; inhibition, % (concentration not given with the values); 37,000 compounds, 0.28% hits; AID 2240, 2010;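 active = most replicates at 85% or more, or half of them and the mean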;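 also: human melanocyte line stably carrying TRPM1 promoter luciferase reporter; 0% = vehicle wells and 100% = a positive control; the first replicate is given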
Hedgehog inh: Hedgehog pathway signaling inhibitors, primary screen, luminescence, Shh-LIGHT2 cells, Gli-luciferase | 22,000 compounds, 2.1% hits | AID 2313, 2010 | inhibition, % (concentration not given with the values) | Shh-LIGHT2 Gli-luciferase reporter, 30 h;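 active = replicate mean of 65% or more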;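 also: pathway switched on by Shh-conditioned medium diluted 1 in 25 in low serum; 100 nL library stock added to about 40 µL; 0% = median of neutral wells and 100% = positive control level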
Starred values were filed as active, the others as inactive; . = no result given. Only part of the results is shown (hit frequency here may not be typical).

entry	Molecule	YB-1 expr inh	PD-1 reversal
1	C[C@@H]1CCCCO[C@@H](CN(C)C(=O)NC2CCCCC2)[C@@H](C)CN([C@H](C)CO)C(=O)c2cc(NC(=O)Nc3ccc4c(c3)OCO4)ccc2O1	0.2	2.5
2	COc1cccc(N2C(=O)C(CC(=O)Nc3ccc(F)cc3)N(C3CCCCC3)C2=O)c1 (stereo not given)	.	0.1
3	CC(C)NC(=O)Nc1ccc2c(c1)C(=O)N([C@H](C)CO)C[C@@H](C)[C@@H](CN(C)S(=O)(=O)c1cn(C)cn1)O2	-0.0089	2.0
4	C[C@H](CO)N1C[C@H](C)[C@@H](CN(C)C(=O)Nc2ccc(C(F)(F)F)cc2)Oc2c(cccc2N(C)C)C1=O	-0.3	.
5	C[C@H]1CN([C@@H](C)CO)C(=O)Cc2cc(NC(=O)Nc3ccc4c(c3)OCO4)ccc2O[C@@H]1CN(C)C(=O)Nc1ccc(F)cc1	-0.12	0.6
6	C[C@H](CO)N1C[C@H](C)[C@H](CN(C)S(C)(=O)=O)Oc2c(NC(=O)Nc3ccc(C(F)(F)F)cc3)cccc2C1=O	-0.22	1.1
7	Cc1cc(C(=O)Nc2cccc3c2O[C@H](CN(C)Cc2ccc(C(=O)Nc4ccccc4N)cc2)[C@@H](C)CN([C@H](C)CO)C3=O)n(C)n1	-0.22	-0.9
8	C[C@@H]1CN([C@H](C)CO)C(=O)c2cc(N(C)C)ccc2O[C@@H]1CN(C)S(=O)(=O)c1ccccc1	-0.23	.

entry	MITF inh	Hedgehog inh
1	1	-7
2	-26	.
3	3	-21
4	1	-8
5	0	.
6	-3	14
7	1	.
8	-2	-18

6 compounds drawn at random from those above:
entry	Molecule	YB-1 expr inh	PD-1 reversal
2	COc1cccc(N2C(=O)C(CC(=O)Nc3ccc(F)cc3)N(C3CCCCC3)C2=O)c1 (stereo not given)	.	0.1
8	C[C@@H]1CN([C@H](C)CO)C(=O)c2cc(N(C)C)ccc2O[C@@H]1CN(C)S(=O)(=O)c1ccccc1	-0.23	.
5	C[C@H]1CN([C@@H](C)CO)C(=O)Cc2cc(NC(=O)Nc3ccc4c(c3)OCO4)ccc2O[C@@H]1CN(C)C(=O)Nc1ccc(F)cc1	-0.12	0.6
6	C[C@H](CO)N1C[C@H](C)[C@H](CN(C)S(C)(=O)=O)Oc2c(NC(=O)Nc3ccc(C(F)(F)F)cc3)cccc2C1=O	-0.22	1.1
3	CC(C)NC(=O)Nc1ccc2c(c1)C(=O)N([C@H](C)CO)C[C@@H](C)[C@@H](CN(C)S(=O)(=O)c1cn(C)cn1)O2	-0.0089	2.0
7	Cc1cc(C(=O)Nc2cccc3c2O[C@H](CN(C)Cc2ccc(C(=O)Nc4ccccc4N)cc2)[C@@H](C)CN([C@H](C)CO)C3=O)n(C)n1	-0.22	-0.9

entry	MITF inh	Hedgehog inh
2	-26	.
8	-2	-18
5	0	.
6	-3	14
3	3	-21
7	1	.

(continued)
entry	Molecule	YB-1 expr inh	PD-1 reversal
9	Cc1noc(C)c1S(=O)(=O)Nc1ccc2c(c1)CC(=O)N([C@H](C)CO)C[C@H](C)[C@H](CN(C)C(=O)NC1CCCCC1)O2	-0.089	.
10	Cc1ccc(S(=O)(=O)N(C)C[C@H]2Oc3ccc(NS(=O)(=O)c4ccc(F)cc4)cc3C(=O)N([C@H](C)CO)C[C@H]2C)cc1	0.001	0.8
11	C[C@@H]1CCCCO[C@H](CN(C)Cc2ccc(Cl)c(Cl)c2)[C@@H](C)CN([C@H](C)CO)C(=O)c2cc(NC(=O)Nc3cccc4ccccc34)ccc2O1	0.34	1.5
12	C[C@@H]1CN([C@@H](C)CO)C(=O)c2cccc(NC(=O)CCCCCC(=O)Nc3ccccc3N)c2O[C@@H]1CN(C)S(=O)(=O)c1ccccc1	-0.31	-3.7
13	C[C@@H]1CN([C@@H](C)CO)C(=O)c2cccc(NC(=O)c3nc4ccccc4s3)c2O[C@H]1CN(C)S(=O)(=O)c1ccc(Cl)cc1	-0.055	-3.2
14	O=c1c(O)c(-c2ccccc2)oc2cc(O)ccc12	0.49	.
15	CC(C)NC(=O)N(C)C[C@@H]1Oc2ccc(NS(=O)(=O)c3cn(C)cn3)cc2C(=O)N([C@@H](C)CO)C[C@@H]1C	0.064	-0.2
16	C[C@@H]1CN([C@@H](C)CO)C(=O)Cc2cc(NC(=O)NC3CCCCC3)ccc2O[C@@H]1CN(C)Cc1ccc(C(=O)O)cc1	-0.89	2.3

entry	MITF inh	Hedgehog inh
9	4	-11
10	4	3
11	6	-20
12	27	.
13	28	-14
14	-71	-47
15	-9	8
16	8	-53

(list continues)
entry	Molecule	YB-1 expr inh	PD-1 reversal
17	C[C@H](CO)N1C[C@H](C)[C@@H](CN(C)Cc2ccccc2)Oc2ccc(NS(=O)(=O)c3cccs3)cc2C1=O	-0.011	-0.7
18	C[C@@H]1CN([C@H](C)CO)C(=O)c2cc(NC(=O)CCCCCC(=O)Nc3ccccc3N)ccc2O[C@H]1CN(C)S(=O)(=O)c1cccs1	0.35	0.2
19	C[C@@H]1CN([C@@H](C)CO)C(=O)c2cccc(NS(=O)(=O)c3ccc(F)cc3)c2O[C@H]1CN(C)C	0.21	0.8
20	O=C(O)CC(Cn1[nH]nnc1=S)c1ccccc1 (stereo not given)	.	1.4
21	C[C@@H]1CCCCO[C@@H](CN(C)Cc2ccc3c(c2)OCO3)[C@@H](C)CN([C@H](C)CO)C(=O)c2cc(NC(=O)c3ccncc3)ccc2O1	-0.002	.
22	COc1c(OC2OC(CO)C(O)C(O)C2O)cc(O)c2c1OC(c1ccccc1)CC2=O (stereo not given)	.	0.6
23	O=C(O)c1ccccc1Sc1ccccc1S(=O)(=O)NC12CC3CC(CC(C3)C1)C2	-0.5	6.0
24	COc1ccc(S(=O)(=O)Nc2ccc3c(c2)C(=O)N([C@H](C)CO)C[C@@H](C)[C@@H](CN(C)C(=O)NC(C)C)O3)cc1	0.39	.

entry	MITF inh	Hedgehog inh
17	0	8
18	2	.
19	-4	-13
20	-10	.
21	-5	8
22	-37	-10
23	5	15
24	-1	-19

Next section:
entry	Molecule	YB-1 expr inh	PD-1 reversal
25	CCOC(=O)CSc1sc(C(=O)OCC)c2c1S(=O)(=O)N(C)c1ccccc1-2	-0.41	0.3
26	Cc1ccc(S(=O)(=O)/C(C#N)=C/Nc2cc(C(F)(F)F)cc(C(F)(F)F)c2)cc1	-0.16	-0.4
27	C[C@@H]1CN([C@@H](C)CO)C(=O)c2cccc(NS(=O)(=O)c3cccs3)c2O[C@H]1CN(C)C(=O)Nc1cccc2ccccc12	0.35	0.7
28	Cc1ccc(S(=O)(=O)Nc2ccc3c(c2)CC(=O)N([C@H](C)CO)C[C@@H](C)[C@@H](CN(C)S(=O)(=O)c2ccc(F)cc2)O3)cc1	0.18	-0.6
29	Cc1ccc(-n2nc3cc(C)c(NC(=O)COc4cccc(C)c4)cc3n2)cc1	.	2.7
30	C[C@@H]1CCCCO[C@H](CN(C)C(=O)c2ccncc2)[C@@H](C)CN([C@H](C)CO)C(=O)c2cc(NS(=O)(=O)c3ccc(F)cc3)ccc2O1	0.24	0.3
31	Cc1noc(C)c1NC(=O)N(C)C[C@@H]1Oc2ccc(NS(=O)(=O)c3c(C)noc3C)cc2CC(=O)N([C@H](C)CO)C[C@H]1C	0.24	.
32	O=C(COc1ccc2ccccc2c1Br)Nc1cccnc1	.	-1.7

entry	MITF inh	Hedgehog inh
25	12	-12
26	26	101*
27	12	-32
28	-1	-59
29	-63	.
30	-12	7
31	-40	-38
32	-23	.

The list goes on.
entry	Molecule	YB-1 expr inh	PD-1 reversal
33	C[C@@H]1CN([C@@H](C)CO)C(=O)Cc2cc(NS(C)(=O)=O)ccc2O[C@@H]1CN(C)CC1CC1	0.06	1.5
34	C[C@@H]1CCCCO[C@H](CN(C)C(=O)Nc2cccc3ccccc23)[C@@H](C)CN([C@H](C)CO)C(=O)c2cc(NC(=O)CCC(F)(F)F)ccc2O1	0.12	-2.9
35	O=S(=O)(NCCC12CC3CC(CC(C3)C1)C2)c1cccc2nsnc12	0.27	-0.8
36	COc1ccc(OC)c(NC(=O)c2ccccc2NS(=O)(=O)c2cccc3cccnc23)c1	.	-1.2
37	C[C@@H]1CCCCO[C@H](CN(C)C)[C@@H](C)CN([C@H](C)CO)C(=O)c2cc(NC(=O)c3ccncc3)ccc2O1	0.25	0.8
38	C[C@H](CO)N1C[C@H](C)[C@H](CN(C)S(=O)(=O)c2cccs2)Oc2ccc(NC(=O)Cn3cnnn3)cc2CC1=O	0.21	1.0
39	CC(C)NC(=O)Nc1ccc2c(c1)C(=O)N([C@@H](C)CO)C[C@@H](C)[C@@H](CN(C)C(=O)Nc1cccc3ccccc13)O2	-0.028	.
40	C[C@H]1CN([C@@H](C)CO)C(=O)c2cc(NC(=O)CCN3CCOCC3)ccc2O[C@H]1CN(C)C(=O)Nc1ccc(C(F)(F)F)cc1	0.13	0.7

entry	MITF inh	Hedgehog inh
33	-9	-41
34	-11	57
35	-11	.
36	1	.
37	-20	-12
38	-3	-27
39	-1	-64
40	-2	-31

Going on with the list.
entry	Molecule	YB-1 expr inh	PD-1 reversal
41	COc1cc(NC(=O)COc2cc(C)cc(C)c2C)c(OC)cc1Cl	.	3.7
42	CNC[C@@H]1Oc2ccc(NS(=O)(=O)c3ccccc3)cc2C(=O)N([C@@H](C)CO)C[C@H]1C	0.34	0.5
43	COc1ccccc1NC(=O)Cn1cnc2sc3c(c2c1=O)CCC(C)C3 (stereo not given)	.	-0.5
44	Cc1noc(C)c1NC(=O)Nc1ccc2c(c1)CC(=O)N([C@H](C)CO)C[C@@H](C)[C@H](CN(C)C(=O)Nc1ccc3c(c1)OCO3)O2	0.14	0.3
45	C[C@H]1CN([C@@H](C)CO)C(=O)c2cccc(NC(=O)C3CC3)c2O[C@H]1CN(C)C(=O)Nc1ccc(F)cc1	0.12	1.0
46	C[C@@H]1CN([C@@H](C)CO)C(=O)c2cccc(NC(=O)Nc3ccc(C(F)(F)F)cc3)c2O[C@H]1CN(C)S(=O)(=O)c1cccs1	0.054	.
47	CCc1nc(SCC(=O)Nc2ccnc3ccccc23)n[nH]1	.	1.0
48	C[C@@H]1CN([C@@H](C)CO)C(=O)Cc2cc(NC(=O)c3ccncc3)ccc2O[C@@H]1CN(C)C(=O)Nc1ccc(F)cc1	0.24	.

entry	MITF inh	Hedgehog inh
41	-35	.
42	-6	-15
43	32	.
44	-6	.
45	-6	20
46	11	2
47	-6	.
48	8	-11

(continued)
entry	Molecule	YB-1 expr inh	PD-1 reversal
49	C[C@@H]1CN([C@@H](C)CO)C(=O)c2cccc(NC(=O)C3CC3)c2O[C@@H]1CN(C)C(=O)Nc1ccccc1	0.23	0.3
50	COCCNC(=O)c1c(NC(=O)c2nc(SC)ncc2Cl)sc2c1CCCC2	.	-4.7
51	Cc1cc2c(cc1C)C(=O)C(c1ccccc1)=C(NCc1ccccc1)C2=O	-0.039	-0.1
52	Cc1cc(=O)n2c3ccccc3n(CC(O)CN3CCN(CCO)CC3)c2c1C#N (stereo not given)	.	0.1
53	CNC[C@H]1Oc2ccc(NC(=O)CCN3CCOCC3)cc2C(=O)N([C@@H](C)CO)C[C@H]1C	0.33	-0.5
54	C[C@@H]1CCCCO[C@@H](CN(C)Cc2ccc(Cl)c(Cl)c2)[C@@H](C)CN([C@H](C)CO)C(=O)c2cc(NC(=O)Nc3ccc(C(F)(F)F)cc3)ccc2O1	-0.26	-1.2
55	COc1ccc(NC(=O)N(C)C[C@H]2OCCCC[C@@H](C)Oc3ccc(NS(=O)(=O)c4ccc(F)cc4)cc3C(=O)N([C@H](C)CO)C[C@@H]2C)cc1	-0.26	0.9
56	O=C(COc1ccc(Br)cc1)Nc1ccc2oc(-c3ccc(F)cc3)nc2c1	.	1.8

entry	MITF inh	Hedgehog inh
49	-7	5
50	20	.
51	6	3
52	-13	.
53	-1	.
54	-4	.
55	-28	-4
56	-104	.

Following part
entry	Molecule	YB-1 expr inh	PD-1 reversal
57	Cc1cccc(NC(=O)CSc2nnc(-c3ccc(Br)cc3)o2)c1C	.	1.6
58	CC(=O)OC/C=C(\CO)CC/C=C(\C)CC/C=C(\CC/C=C(\C)COC(C)=O)C(=O)O	-0.75	.
59	C[C@@H]1CN([C@H](C)CO)C(=O)c2cc(NC(=O)Cc3cn(C)c4ccccc34)ccc2O[C@H]1CN(C)C(=O)Nc1cccc2ccccc12	0.1	0.1
60	COc1ccc(NC(=O)N(C)C[C@@H]2Oc3ccc(NC(=O)C4CCCCC4)cc3C(=O)N([C@@H](C)CO)C[C@@H]2C)cc1	0.46	0.9

entry	MITF inh	Hedgehog inh
57	-4	.
58	.	-13
59	14	.
60	2	4
